From PubChem
DUX4 inh: inhibitors of DUX4-driven ZSCAN4 reporter expression, primary screen, 293T cells, Gaussia and Italica luciferase. AID 1224904, 2016. 293T-iDUX4 ZSCAN4-Gaussia luciferase reporter, 24 h; active compounds read low. activity change, negative = inhibition, % (test concentration not listed). hit rate 0.8% among 37,000;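 active = -10% or lower and over 25 points stronger than a control reporter; inconclusive = -10% or lower with a smaller gap; inactive = above -10%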;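 also: 0% = median of neutral control wells and -100% = median of positive control wells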
DUX4 inh difference: also measured in DUX4 inh; calls as there; Gaussia minus Italica difference, %; measured here: selective DUX4 reporter inhibition;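 worked out from the two reporters; negative = selective loss of the DUX4 reporter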
DUX4 inh control: also measured in DUX4 inh; calls as there; activity change, negative = inhibition, %; measured here: Italica tet-on control reporter;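 0 = neutral control and -100 = positive control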
An asterisk follows results filed as active; ? = inconclusive; . = no result given; & = joins results of further samples. Only part of the results is shown; count on the stated rates, not on these rows.

#	molecule	DUX4 inh	DUX4 inh difference	DUX4 inh control
1	O=C(C[C@H]1CC[C@@H]2[C@H](COC[C@@H](O)CN2Cc2cccc(C(F)(F)F)c2)O1)NCc1ccncc1	1.9	13.5	-11.6
2	C[C@H]1COCc2cn(nn2)CC[C@H](Cc2ccccc2)C(=O)N1	-1.0	-1.7	0.7
3	C[C@H]1CN([C@@H](C)CO)C(=O)c2cc(-c3cccnc3)cnc2O[C@@H]1CN(C)C(=O)C1CCCCC1	-0.3	-0.2	-0.1
4	CCCC(O)C#Cc1cnc2c(c1)C(=O)N([C@H](C)CO)C[C@H](C)[C@H](CN(C)Cc1cccc(C(F)(F)F)c1)O2 (stereo partly specified)	-0.9	-2.7	1.8
5	COCCNC(=O)C[C@@H]1C[C@@H]2c3cc(NC(=O)CC4CC4)ccc3O[C@@H]2[C@H](CO)O1	8.5	7.1	1.3
6	CO[C@H]1CN(C)C(=O)c2ccc(NC(=O)C3CCOCC3)cc2OC[C@H](C)N(C)C[C@H]1C	2.6	-0.4	3.0
7	CO[C@@H]1CC[C@H]2CCN(C)C(=O)[C@H](C)N(C)C(=O)c3cc(C#N)ccc3OC[C@H]1O2	-5.4	-3.8	-1.6
8	CCCN(C)C[C@H]1OCCCC[C@@H](C)Oc2ccc(NS(=O)(=O)c3ccc(C)cc3)cc2C(=O)N([C@H](C)CO)C[C@@H]1C	-0.9	-1.9	0.9
9	CC(C)[C@@H]1C/C=C\CCNC(=O)[C@@H](C)CC(=O)N1	-7.0	-9.5	2.5
10	CC(C)(O)C#Cc1ccc([C@@H]2[C@@H](CO)N3CCCCN(C(=O)c4ccc(F)cc4)C[C@H]23)cc1	0.9	2.5	-1.6
11	O=C(C[C@@H]1C[C@H]2c3cc(NC(=O)Nc4ccccc4F)ccc3O[C@H]2[C@H](CO)O1)NCc1ccncc1	0.8	2.5	-1.7
12	CCCC(=O)N1CC2(CN(S(C)(=O)=O)C2)c2c([nH]c3cc(OC)ccc23)[C@H]1CO	15.7	14.7	0.9
13	CCS(=O)(=O)Nc1ccc2c(c1)C(=O)N(C)[C@H]1CC[C@H](CC(=O)NC)O[C@H]1CO2	4.1	-0.9	5.0
14	O=C(C[C@H]1CC[C@H](NS(=O)(=O)c2ccc(F)cc2)[C@H](CO)O1)N1CCN(c2ccccc2)CC1	4.8	6.6	-1.9
15	COc1ccccc1-c1ccc([C@H]2[C@@H](CO)N[C@@H]2CNC(=O)C2CCCC2)cc1	-1.5	-2.2	0.7
16	CCS(=O)(=O)Nc1ccc2c(c1)C(=O)N(C)[C@@H]1CC[C@H](CC(=O)N[C@H]3CCN(Cc4ccccc4)C3)O[C@H]1CO2	1.6	3.3	-1.7
17	C[C@@H]1CN([C@H](C)CO)C(=O)c2cccc(NC(=O)C3CCCCC3)c2O[C@H]1CN(C)Cc1ccc(Cl)c(Cl)c1	0.8	2.4	-1.6
18	CO[C@H]1CN(C)C(=O)c2cc(NC(=O)Nc3ccc(Cl)c(Cl)c3)ccc2OC[C@@H](C)NC[C@H]1C	?	-7.3	8.3
19	COc1ccccc1C(=O)Nc1ccc2c(c1)C(=O)N(C)[C@H]1CC[C@H](CC(=O)Nc3cccc(C(C)C)c3)O[C@@H]1CO2	-0.9	-4.6	3.7
20	CN(C)C(=O)C[C@H]1CC[C@@H]2[C@H](COc3ccc(NC(=O)c4ccc(F)cc4)cc3C(=O)N2C)O1	-1.2	-6.1	4.9
21	CC(C)(C)[S@@](=O)N1Cc2cc(C(=O)N3CCCCC3)nc(-c3cccc(-c4ccccc4F)c3)c2[C@H]1CCO	0.1	-1.3	1.4
22	CCC(=O)N1[C@H](C#N)[C@H](c2ccccc2-c2cccc(C)c2)[C@H]1CO	2.0	5.0	-3.0
23	N#C[C@@H]1[C@H](c2ccccc2)[C@@H](CO)N1S(=O)(=O)c1ccc(-c2ccccc2)cc1	3.8	2.2	1.5
24	CO[C@H](CN(C)C(=O)c1ccc2c(c1)OCO2)[C@H](C)CN([C@@H](C)CO)S(=O)(=O)c1ccc(C)cc1	-1.6	-2.5	0.9
25	O=C(C[C@H]1C[C@@H]2c3cc(NC(=O)C4CCC4)ccc3O[C@@H]2[C@H](CO)O1)NCC1CC1	-0.5	1.3	-1.8
26	N#C[C@@H]1[C@H](c2ccc(C#CC3CCCCC3)cc2)[C@H](CO)N1C(=O)Nc1ccc(F)cc1	-1.3	1.2	-2.4
27	O=S(=O)(N[C@H]1CC[C@@H](CCn2cc(-c3cccnc3)nn2)O[C@@H]1CO)c1ccc(Cl)cc1	0.9	-1.9	2.8
28	C[C@@H]1CN([C@H](C)CO)C(=O)c2cccc(NC(=O)Nc3ccc4c(c3)OCO4)c2O[C@@H]1CN(C)S(C)(=O)=O	1.1	-2.9	4.0
29	O=C(C1CC1)N1CC2(C1)[C@@H](c1ccccc1)[C@@H](CO)N2Cc1cncnc1	12.0	8.6	3.4
30	COc1ccc2c3c(n(C)c2c1)[C@H](CO)N(C)CC31CCN(C(=O)CN2CCOCC2)CC1	4.3	-7.2	11.5
31	N#C[C@@H]1[C@@H](c2ccc(C#Cc3ccccc3F)cc2)[C@@H](CO)N1C(=O)c1cccnc1	-1.7	-3.9	2.2
32	CCCNC(=O)Nc1ccc2c(c1)OC[C@@H](C)N(C(=O)CC)C[C@@H](C)[C@@H](OC)CN(C)C2=O	-0.4	-3.4	3.1
33	COc1ccc(CNC(=O)C[C@H]2C=C[C@@H](NC(=O)c3cccc(F)c3)[C@H](CO)O2)cc1	8.7	11.6	-2.9
34	O=C(C[C@@H]1CC[C@@H]2[C@H](COC[C@@H](O)CN2S(=O)(=O)c2ccc(F)cc2)O1)NCC1CC1	7.8	7.1	0.7
35	CN1C(=O)c2cc(NC(=O)c3ccccc3F)ccc2OC[C@H]2O[C@H](CC(=O)NCc3ccc4c(c3)OCO4)CC[C@@H]21	-0.3	-2.7	2.4
36	COc1ccc(S(=O)(=O)N(C)C[C@H]2OCCCC[C@H](C)Oc3ccc(NC(=O)Nc4cccc5ccccc45)cc3C(=O)N([C@@H](C)CO)C[C@@H]2C)cc1	3.2	6.1	-2.9
37	Cc1noc(C)c1NC(=O)N1C[C@H](O)COC[C@H]2O[C@@H](CC(=O)N[C@H]3CCN(Cc4ccccc4)C3)CC[C@@H]21	9.1	4.2	4.9
38	C[C@@H]1CN([C@@H](C)CO)C(=O)CCCn2nncc2CO[C@H]1CN(C)S(=O)(=O)c1ccc(Cl)cc1	-4.0	-5.9	1.8
39	COc1ccc2c3c([nH]c2c1)[C@@H](CO)N(C(=O)Nc1ccc(F)cc1)CC31CN(CC2CC2)C1	?	.	.
40	O=C(C1CCOCC1)N1C[C@H]2[C@@H](c3ccccc31)[C@H](CO)N2C(=O)Cc1ccccc1	1.5	1.1	0.4
41	COc1cccc(C#Cc2ccc([C@H]3[C@@H](CO)N4C(=O)CN(C(=O)Cc5cccnc5)C[C@H]34)cc2)c1	-7.4	0.9	-8.3
42	O=C(C[C@@H]1C[C@@H]2c3cc(NC(=O)c4ccc5c(c4)OCO5)ccc3O[C@@H]2[C@H](CO)O1)NCc1ccc(Cl)cc1	3.0	11.4	-8.3
43	COc1ccc(C#Cc2ccc3c(c2)[C@@H]2[C@@H](CCN2C(=O)c2ccncc2)[C@@H](CO)N3)cc1	-2.3	-2.2	-0.1
44	O=C(CC1CC1)N1CC(=O)N2[C@H](CO)[C@@H](c3ccc(C#Cc4ccccc4)cc3)[C@@H]2C1	-8.8	-2.4	-6.4
45	O=C(CCN1CCCCC1)N[C@H]1CC[C@@H](CCNC(=O)c2cc(Cl)cc(Cl)c2)O[C@@H]1CO	3.6	7.1	-3.5
46	C/C=C/c1ccc([C@@H]2[C@@H](CO)N3CCCCN(S(=O)(=O)c4cccc(C)c4)C[C@@H]23)cc1	?	.	.
47	CS(=O)(=O)N1C[C@H](O)COC[C@@H]2O[C@@H](CC(=O)NCCc3ccncc3)CC[C@H]21	4.3	2.7	1.6
48	COCC(=O)N(C)C[C@H]1Oc2cc(C#CCC3CCCC3)ccc2S(=O)(=O)N([C@H](C)CO)C[C@H]1C	-2.1	-3.0	0.8
49	O=C(Nc1ccccc1)N1CC(=O)N2[C@H](CO)[C@H](c3ccc(-c4ccc(F)cc4)cc3)[C@H]2C1	0.7	8.7	-8.0
50	CO[C@@H]1CN(C)C(=O)c2ccc(NS(=O)(=O)c3c(C)noc3C)cc2OC[C@@H](C)NC[C@@H]1C	3.9&-1.3	-0.1&-1.5	4.0&0.3
51	CN1C(=O)c2cc(NC(=O)c3cccc(F)c3)ccc2OC[C@@H]2O[C@@H](CC(=O)NCC3CCCCC3)CC[C@@H]21	1.9	-1.8	3.7
52	CCN(C[C@H]1N[C@H](CO)[C@H]1c1ccc(-c2cccc(C#N)c2)cc1)C(C)=O	0.5	-1.2	1.7
53	O=C(Nc1cccc(F)c1)N1CC(=O)N2[C@H](C1)[C@H](c1ccc(C#CCC3CCCC3)cc1)[C@@H]2CO	-4.8	-8.6	3.8
54	O=C(C[C@H]1CC[C@H]2NC[C@@H](O)COC[C@@H]2O1)NCc1ccc(Oc2ccccc2)cc1	5.2	4.7	0.5
55	COc1ccc(S(=O)(=O)Nc2ccc3c(c2)C(=O)N([C@H](C)CO)C[C@@H](C)[C@@H](CN(C)S(=O)(=O)c2cn(C)cn2)OCCCC[C@H](C)O3)cc1	5.3	4.5	0.8
56	COCC(=O)Nc1ccc2c(c1)[C@H]1C[C@@H](CC(=O)N(C)C)O[C@@H](CO)[C@H]1O2	8.1	0.2	7.9
57	O=C(C[C@@H]1C[C@@H]2c3cc(NC(=O)NC4CCCC4)ccc3O[C@@H]2[C@H](CO)O1)NCc1cccc(F)c1	7.3	6.6	0.8
58	CCCC(=O)N1CC2(CN(C(=O)NC(C)C)C2)c2c([nH]c3cc(OC)ccc23)[C@@H]1CO	15.0	3.5	11.5
59	O=C(NCC1CC1)[C@H]1[C@H](CO)[C@H]2Cn3c(cccc3=O)[C@H]2N1C(=O)Nc1ccccc1	4.0	8.3	-4.2
60	CN1CCN(C(=O)C[C@@H]2CC[C@@H]3[C@H](COC[C@@H](O)CN3C(=O)Cc3ccccc3)O2)CC1	6.8	-0.2	7.1

Rewritten with each value named: part of the list above
[36] COc1ccc(S(=O)(=O)N(C)C[C@H]2OCCCC[C@H](C)Oc3ccc(NC(=O)Nc4cccc5ccccc45)cc3C(=O)N([C@@H](C)CO)C[C@@H]2C)cc1
  DUX4 inh: 3.2	DUX4 inh difference: 6.1	DUX4 inh control: -2.9

[37] Cc1noc(C)c1NC(=O)N1C[C@H](O)COC[C@H]2O[C@@H](CC(=O)N[C@H]3CCN(Cc4ccccc4)C3)CC[C@@H]21
  DUX4 inh: 9.1	DUX4 inh difference: 4.2	DUX4 inh control: 4.9

[38] C[C@@H]1CN([C@@H](C)CO)C(=O)CCCn2nncc2CO[C@H]1CN(C)S(=O)(=O)c1ccc(Cl)cc1
  DUX4 inh: -4.0	DUX4 inh difference: -5.9	DUX4 inh control: 1.8

[39] COc1ccc2c3c([nH]c2c1)[C@@H](CO)N(C(=O)Nc1ccc(F)cc1)CC31CN(CC2CC2)C1
  DUX4 inh: ?	DUX4 inh difference: .	DUX4 inh control: .

(listing goes on)
#	molecule	DUX4 inh	DUX4 inh difference	DUX4 inh control
61	C/C=C/c1ccc([C@@H]2[C@@H](CO)N(C(C)=O)[C@H]2CN(CC(C)C)C(C)=O)cc1	2.9	-0.5	3.4
62	COc1ccccc1NC(=O)N(C)C[C@H]1OCc2cn(nn2)CCCC(=O)N([C@H](C)CO)C[C@@H]1C	-3.3	-11.9	8.7
63	O=C(C[C@@H]1CC[C@@H]2[C@H](COC[C@@H](O)CN2C(=O)Nc2ccc(F)cc2)O1)NCCCN1CCOCC1	6.8	-1.8	8.6
64	CO[C@H]1CC[C@H]2CCOc3ccc(C#N)cc3C(=O)N(C)C[C@H](c3ccccc3)CC(=O)N(C)C[C@H]1O2	3.2	5.1	-1.9
65	CCCNC(=O)C[C@@H]1CC[C@H]2[C@@H](COC[C@H](O)CN2C(=O)CC)O1	1.8	4.4	-2.6
66	CCC(=O)N1C[C@H](C)[C@@H](OC)CN(C)C(=O)c2ccc(NC(=O)C3CCOCC3)cc2OC[C@H]1C	-4.1	-13.7	9.6
67	CNC[C@@H]1Oc2ccc(NC(=O)CCN3CCOCC3)cc2CC(=O)N([C@@H](C)CO)C[C@@H]1C	-1.5	-4.6	3.1
68	Cc1ccccc1S(=O)(=O)N(C)C[C@@H]1OCc2cn(nn2)CCCC(=O)N([C@@H](C)CO)C[C@@H]1C	2.0	4.2	-2.3
69	O=C(C[C@H]1CC[C@@H](NC(=O)C2CC2)[C@H](CO)O1)Nc1ccccc1	0.7	-2.9	3.7
70	CCCC#Cc1ccc2c(c1)[C@@H]1[C@@H](CCN1S(=O)(=O)c1cccc(F)c1)[C@@H](CO)N2C	17.9	16.1	1.8
71	CN(C)CC(=O)N1CC[C@@H]2[C@H](CO)Nc3ccc(-c4ccc(C(=O)N(C)C)cc4)cc3[C@@H]21	15.3	10.1	5.3
72	O=C(Nc1ccc(F)cc1)N1C[C@@H]2[C@H](c3ccccc31)[C@H](CO)N2C(=O)Cc1ccccc1	6.2	-0.6	6.8
73	C[C@@H]1CN([C@H](C)CO)C(=O)c2c(c3ccccc3n2C)-c2ccccc2CO[C@H]1CN(C)Cc1ccc(Cl)c(Cl)c1	?	.	.
